MARV entry inh – blocks Marburg virus binding to or entry into cells; Potency, µM (highest dose often 37.8 µM), without a hit: top-dose activity change, negative = inhibition, most hits filed as inhibitors; Marburg virus pseudotyped entry inhibition, cell reporter; control for the full effect not named in the record; about a third of the inactives were read at about 46 µM; hit rate 1.8% among 300,000; active = well fitted inhibition curve with a large enough effect; inconclusive = small, poorly fitted or top-dose-only effect, or effect the other way; inactive = flat fitted curve, though single readings scatter; tested in HEK293 cells; about a fifth of its hits are not listed in these tables; further: on the % scale 0 is the no-effect control and ±100 the full control effect; luciferase read-out
SARS PLP yeast – SARS-CoV PLP inhibition in yeast; Potency, µM (series often up to 32.9 µM), without a hit: at the top dose activity, positive = growth rescue; hit rate 0.19% among 330,000; S. cerevisiae expressing SARS-CoV PLpro, growth rescue; control for the full effect not named in the record; active means well fitted rising curve with a large enough effect; inconclusive means small, poorly fitted or top-dose-only effect; inactive means no such curve, though single readings can be large or run the other way; further: 0% is about no effect; nearly all actives have a fitted effect of over 55% in size; growth read by luminescence after 48 h
Cruzain noTriton – blocks cruzain activity in detergent-free assay; AID 1476; purified cruzain, Z-FR-AMC fluorescence, no detergent; hit rate 2.3% among 200,000; Potency, µM, for inactives: max response, negative = inhibition, actives largely listed as inhibitors; P25779;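 further: plate controls were enzyme without inhibitor for no effect and buffer without enzyme for full effect; nearly all actives have a fitted effect of over 40% in size; top concentration of the series not given in the record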
Target sequence (P25779 123-467 limits assumed): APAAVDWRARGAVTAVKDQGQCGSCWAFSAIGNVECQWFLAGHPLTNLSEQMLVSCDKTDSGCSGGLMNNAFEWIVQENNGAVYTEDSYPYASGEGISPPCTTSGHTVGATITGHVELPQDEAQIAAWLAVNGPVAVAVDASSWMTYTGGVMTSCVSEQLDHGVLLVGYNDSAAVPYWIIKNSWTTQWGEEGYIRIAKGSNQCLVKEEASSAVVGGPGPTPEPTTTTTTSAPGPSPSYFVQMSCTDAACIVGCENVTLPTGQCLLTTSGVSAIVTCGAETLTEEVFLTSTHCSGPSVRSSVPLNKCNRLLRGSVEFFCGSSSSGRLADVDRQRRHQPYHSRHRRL
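Detergent-free condition (0.00005% Triton X-100) in acetate buffer pH 5.5 with DTT. 1.5 nM enzyme and compound were pre-mixed 15 min, then 2 uM Z-FR-AMC substrate added; reaction progress from fluorescence change between first and third reads (60 s).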
NS1 function inh – blocks influenza NS1 protein function. S. cerevisiae slowed by influenza A NS1, growth recovery by OD600. hit rate 0.4% among 270,000. Potency, µM (titrated, usually from 46.1 µM), for the others: at the top dose activity, positive = more growth; active means well fitted rising curve with a large enough effect; inconclusive means small, poorly fitted or top-dose-only effect; inactive means no such curve, though single readings can be large or run the other way; further: nearly all actives have a fitted effect of over 50% in size
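Compounds were scored for reversing the slow growth caused by influenza A NS1 in S. cerevisiae, measured by optical density at 600 nm. Assay medium contained 2% galactose at pH 6.0; NS1-free yeast of the same strain were the positive control.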
LASV entry inh – Lassa virus entry inhibition; Lassa virus pseudotype entry inhibition, cell reporter; control for the full effect not named in the record; Potency, µM (highest dose often 37.9 µM), for the others: at the highest dose activity change, negative = inhibition, usual class: inhibitors; hit rate 1.2% among 300,000; AID 540256; active means well fitted inhibition curve with a large enough effect; inconclusive means small, poorly fitted or top-dose-only effect, or effect the other way; inactive means flat fitted curve, though single readings scatter; tested in HEK293 cells; further: on the % scale 0 is the no-effect control and ±100 the full control effect; nearly all actives have a fitted effect of over 50% in size; luciferase read-out
RE007 growth inh – less growth of the S. pombe RE007 Vpr strain. hit rate 0.21% among 360,000. Potency, µM (series often up to 92.2 µM), for inactives: at the top dose activity change, negative = less growth. S. pombe RE007 Vpr strain, BacTiter-Glo ATP luminescence, 24 h; control for the full effect not named in the record; active = well fitted falling curve with a large enough effect; inconclusive = small, poorly fitted or top-dose-only effect; inactive = no such curve, though single readings can be large or run the other way;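 further: on the % scale 0 is the no-effect control and ±100 the full control effect; nearly all actives have a fitted effect of over 50% in size; the assay follows cell death caused by Vpr and the record does not say whether a fall means rescue or toxicity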
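Fission yeast strain RE007, carrying one chromosomally integrated HIV-1 vpr copy, was seeded at OD 0.01 in PMG+AL medium with 23 nL pinned compound. After 24 h at 30 °C and 99% humidity, viability was read by BacTiter-Glo luminescence.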
Cruzain Triton – cruzain (T. cruzi) inhibition with detergent. P25779. purified cruzain, Z-FR-AMC fluorescence, 0.01% Triton. Potency, µM, without a hit: max response, negative = inhibition, hits mostly inhibitors. hit rate 0.43% among 200,000. AID 1478;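 further: plate controls were neutral wells for no effect and buffer without enzyme for full effect; nearly all actives have a fitted effect of over 40% in size; top concentration of the series not given in the record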
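Enzyme 1.5 nM, Z-FR-AMC 2 uM, NaOAc 100 mM pH 5.5, DTT 5 mM, Triton X-100 0.01%; 15 min RT compound preincubation; kinetic ex360/em450, 60 s delta.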
2A StopGo – FMDV 2A StopGo reporter, luciferase signal | human cells with a luciferase reporter of 2A StopGo recoding; control for the full effect not named in the record | Potency, µM (series often up to 57.9 µM), without a hit: at the highest dose signal change, negative = less light | hit rate 1.2% among 410,000; active = well fitted falling curve with a large enough effect; inconclusive = small, poorly fitted or top-dose-only effect; inactive = no such curve, though single readings can be large or run the other way; tested in HEK293T cells; further: on the % scale 0 is the no-effect control and ±100 the full control effect; nearly all actives have a fitted effect of over 45% in size; luciferase light after 4 h
Numbers without * were called inactive; ? = inconclusive; nt = no result given; & = joins results of further samples; [ ] = dose if it differs, or a comment. Unless noted, the call rests on the fitted dose curve; in most records, active means well fitted curve in the direction sought with a large enough effect; inconclusive means small, poorly fitted or top-dose-only effect, or another doubt; inactive means no such curve, though single readings can be large; an effect the other way counts as inactive or inconclusive. Potency means the concentration at half of the fitted maximal effect.

Molecule	MARV entry inh	SARS PLP yeast	Cruzain noTriton	NS1 function inh	LASV entry inh	RE007 growth inh	Cruzain Triton	2A StopGo
COc1cc(C2CC(=O)Nc3c2c(=O)nc2c(C)cccn32)cc(OC)c1OC (stereo not drawn)	?	4.6%	12.1%	nt	5.5%	7.0%	-0.8%	-18.5%&-5.8%
Cc1ccc(S(=O)(=O)N2CCN(S(=O)(=O)N3CCC(C)CC3)CC2)c(C)c1	-0.5%[46.1 µM]	-3.1%	nt	-0.7%	1.3%	-15.7%	nt	-2.9%
COc1cccc(OCc2cc(C(=O)N3CCN(C(=O)c4ccco4)CC3)no2)c1	nt	1.2%	nt	-6.9%	nt	-11.5%	nt	24.0%
CCOC(=O)CSc1nnc(NC(=O)CCc2ccccc2)s1	nt	2.3%	nt	-7.8%	nt	-1.6%	nt	-12.9%
O=C(CSc1nnc(NC(=O)C2CC2)s1)Nc1ccc2c(c1)OCCO2	-12.5%[46.1 µM]	0.6%	nt	1.8%	21.2%	20.5%	nt	14.3%
Cc1ccc(C(c2nnnn2Cc2cccs2)N2CCN(Cc3ccc4c(c3)OCO4)CC2)cc1 (stereo not drawn)	?	2.5%	?	-5.8%	11.2µM*	2.2%	-3.5%	15.9%
Nc1ccc(CC2=NCCN2)cc1	-5.1%[46.1 µM]	nt	nt	nt	-6.8%[46.1 µM]	-13.5%	nt	-7.4%
CCCc1nnc(SCC(=O)N2CCOCC2)n1CCCOC	3.0%	5.8%	12.2%	-15.1%	12.9%	-5.3%	0.3%	4.0%
CCc1ccccc1Nc1nc2cc(Cl)c(Cl)cc2nc1-n1nc(C)cc1C	-19.9%[46.1 µM]	nt	5.0%	nt	7.9%[46.1 µM]	nt	-0.7%	-2.6%
COc1ccc(NC(=O)/C=C/c2ccccc2)cn1	12.2%	-30.4%	-7.0%	-26.2%	-6.8%	-15.9%	-3.6%	44.2%[activator]
O=C(Nc1nnc(C2CCCCC2)s1)C1CC(=O)N(c2ccccc2)C1 (stereo not drawn)	-6.5%[46.1 µM]	0.0%	nt	3.7%	7.5%	24.8%	nt	-5.8%
COc1cccc2[nH]c3c(N4CCC(C(N)=O)CC4)ncnc3c12	-4.0%	-5.3%	-5.4%	6.7%	0.9%	-3.8%	-13.3%	-11.5%
COc1ccc(OC2C(=O)N(CCc3ccc(OC)c(OC)c3)C2c2ccc3c(c2)OCO3)cc1 (stereo not drawn)	?	1.8%	?	9.9%	?	-5.4%	2.6%	?
CC(=NNc1nc2ccccc2s1)c1ccncn1	?	nt	nt	nt	?	?	nt	0.0%
Cc1cc(C)cc(Nc2ncnc3onc(-c4ccc(F)cc4)c23)c1	nt	nt	-6.5%	nt	?	nt	-10.3%	-5.9%
NC(=O)C1CCN(C(=O)c2ccccc2CCc2ccccc2)CC1	?	0.3%	nt	0.4%	8.9%[46.1 µM]	9.2%	nt	6.5%
O=C(/C=C/c1cccnc1)c1ccc(NC(=O)c2cccc(Br)c2)cc1	-2.6%	-6.8%	25.1µM*	-14.2%	-15.9%	-15.7%	-10.7%	4.7%
CCOC(CNC(=O)C1CCN(S(=O)(=O)c2ccc3nc4c(c(C(=O)O)c3c2)CCCCC4)CC1)OCC	nt	1.0%	nt	-0.9%	nt	-0.5%	nt	0.1%
Cc1ccc2cc(C#N)c(SCC(=O)N3CCCC3)nc2c1	0.0%[46.1 µM]	0.8%	nt	-10.6%	?	-20.0%	nt	-6.3%
Cc1ccc(C(=O)N/C(=C\c2ccco2)C(=O)N2CCCCC2)cc1	-0.1%[46.1 µM]	3.9%	nt	25.5%	-0.3%[46.1 µM]	-12.4%	nt	27.9%
O=C(CCS(=O)(=O)c1ccc2c(c1)NC(=O)CS2)NCc1ccccc1Cl	nt	17.4%	nt	-6.2%	nt	2.9%	nt	-17.0%
COc1ccc(C2SCC(=O)N2c2ccc(OC)cc2)cc1 (stereo not drawn)	nt	2.2%	nt	5.2%	nt	10.4%	nt	?
O=C(O)COc1ccccc1/C=N/NC(=O)COc1ccc(-c2ccccc2)cc1	12.0%[46.1 µM]	-5.1%	nt	15.8%	-15.2%	8.3%	nt	4.9%
N#CCSc1nnc(C2CCCCC2)n1-c1ccccc1	0.0%	-4.1%	-3.4%	2.4%	2.2%	-0.2%	-4.2%	-7.9%
O=[N+]([O-])c1ccc2nc(-c3ccc(Cl)cc3)[nH]c2c1	?	-74.3%	-16.5%	-69.6%	?	?	-6.3%	-7.7%
Cc1cc(C)cc(C(=O)NC(CC(N)=O)c2ccc(NCCN3CCOCC3)c([N+](=O)[O-])c2)c1 (stereo not drawn)	nt	-4.9%	nt	-7.5%	nt	16.3%	nt	-10.3%
Cc1cccc(N2CC(C(=O)Nc3nnc(SCCC4OCCO4)s3)CC2=O)c1 (stereo not drawn)	-4.4%	?	nt	10.9%	-5.7%	9.1%	nt	-19.6%
COc1ccc(OC)c(CN2CCC(CO)(CCOc3ccccc3)CC2)c1	?	0.4%	nt	1.6%	0.8%[46.1 µM]	-25.8%	nt	-4.3%
CSc1nc2nc(C)cc(-c3ccccc3)n2n1	4.4%	-3.2%	-1.1%	-6.9%	11.3%	5.0%	2.2%	-22.0%
Cc1ccc(NC(=O)NC(=O)CN2C(=O)NC3(CCCCCCC3)C2=O)c(C)c1	-14.2%	-4.0%	16.1%	-45.9%	-48.3%	-12.1%	-7.6%	nt
CCn1c(CNc2ccc(Cl)cc2)nnc1SCC(=O)NCc1ccccc1	?	1.1%	18.2%	-8.6%	?	0.5%	2.1%	?
COC(=O)/C=C/C(=O)N1CCN(c2cccc(Cl)c2)CC1	?	-8.9%	1.9%	-20.9%	?	nt	3.6%	nt
Cc1ccc(C2=[N+]([O-])C3(CCCCC3=O)N(O)C2(C)C)cc1 (stereo not drawn)	-2.8%[46.1 µM]	2.0%	5.0%	6.9%	0.0%	8.4%	5.8%	9.7%
CSc1nc2ccc(NC(=O)c3ccccn3)cc2s1	?	6.5%	nt	-8.0%	2µM*	?	nt	-49.4%
Cc1nn2c(-c3cccc(NC(=O)CN4CCOCC4)c3)nnc2c2ccccc12	-28.4%	nt	nt	4.2%	-15.9%	4.6%	nt	nt
Cc1cccn2c(CNCC3(c4ccccc4)CCCC3)c(C(=O)N3CCOCC3)nc12	8.91µM*	0.2%	nt	1.3%	?	13.2%	nt	-24.1%
Cc1noc(C)c1C(=O)N1CCN(c2cccc(Cl)c2)CC1	-11.0%[46.1 µM]	11.1%	nt	nt	0.7%	13.0%	nt	-22.4%
O=C(CCN=C1NS(=O)(=O)c2ccccc21)OCc1c(F)c(F)c(F)c(F)c1F	0.7%	9.1%	nt	nt	-4.0%	3.2%	nt	-4.6%
Cc1ccccc1C1=CCN(c2ncc(NC(=O)c3ccc(Cl)cc3)cc2C(=O)O)CC1	nt	nt	6.1%	nt	16.7%[46.1 µM]	nt	-1.7%	-9.6%
Cc1ccc(OCC(=O)Nc2cccc3ccc(C)nc23)c(C)c1	6.2%[46.1 µM]	nt	-1.0%	nt	18.8%[46.1 µM]	nt	1.1%	0.0%

Full records from above. Values in the order: MARV entry inh, SARS PLP yeast, Cruzain noTriton, NS1 function inh, LASV entry inh, RE007 growth inh, Cruzain Triton, 2A StopGo
`Cc1noc(C)c1C(=O)N1CCN(c2cccc(Cl)c2)CC1` is listed as -11.0%[46.1 µM], 11.1%, nt, nt, 0.7%, 13.0%, nt, -22.4%
`Cc1nn2c(-c3cccc(NC(=O)CN4CCOCC4)c3)nnc2c2ccccc12` is listed as -28.4%, nt, nt, 4.2%, -15.9%, 4.6%, nt, nt
`Cc1ccccc1C1=CCN(c2ncc(NC(=O)c3ccc(Cl)cc3)cc2C(=O)O)CC1` is listed as nt, nt, 6.1%, nt, 16.7%[46.1 µM], nt, -1.7%, -9.6%

The results go on.
Molecule	MARV entry inh	SARS PLP yeast	Cruzain noTriton	NS1 function inh	LASV entry inh	RE007 growth inh	Cruzain Triton	2A StopGo
Cn1c(C(=O)N2CCc3ccccc3C2)cc2c(=O)n3ccccc3nc21	?	0.1%	8.7%	-1.9%	?	22.8%	?	0.0%
COc1ccc(N=Nc2ccc(CO)cc2)cc1	?	nt	nt	nt	1µM*	18.3%	nt	0.1%
CCCCn1c(N)c(N(CCC(C)C)C(=O)c2ccc([N+](=O)[O-])o2)c(=O)[nH]c1=O	-27.5%	1.3%	nt	7.4%	-10.8%	10.6%	nt	-7.3%
S=C(Nc1ccc(Cl)cc1)NC1CC2CCCC(C1)N2C1CC1 (stereo not drawn)	?	6.7%	-3.5%	10.2%	-16.9%	1.1%	-10.3%	nt
CC1(C(=O)N(CC(=O)NC2CCCC2)C2CCCC2)CC(=O)N=C2C=CC=CN21 (stereo not drawn)	-18.0%	-6.5%	-7.4%	-1.5%	-23.0%[14.3 µM]	0.7%	-6.2%	15.1%
CC(OC(=O)c1nc(Cl)ccc1Cl)C(=O)Nc1ccccc1F (stereo not drawn)	-20.1%[46.1 µM]	-2.4%	nt	nt	0.7%	3.8%	nt	-16.0%
CCN1/C(=C\C(C)=O)Sc2ccc(OC)cc21	-0.1%&-0.1%	-7.8%	-5.0%	7.2%	-5.5%	1.9%	-0.1%	8.3%
CCNc1nc(NOC)nc(OCC#N)n1	4.4%	?	-3.2%	-6.9%	nt	0.6%	-0.6%	-4.3%
O=C(O)CN1C(=O)c2cccc(Oc3ccc(Cl)cc3)c2C1=O	-3.0%	-3.6%	5.1%	13.6%	-18.0%	3.5%	-1.6%	3.2%
Cc1c2cnn(CC(=O)NCCc3ccccc3)c(=O)c2c(C)n1Cc1ccccc1Cl	?	nt	-1.6%	nt	-0.5%[46.1 µM]	nt	-4.5%	-1.4%
O=c1[nH]c(=O)n(C2CCCCC2)c(O)c1C=NCCCn1ccnc1	-1.9%	1.6%	3.0%	2.3%	?	-0.3%	0.9%	-10.4%
